Mtb MbtI inh – MbtI salicylate synthase inhibitors, primary screen, biochemical, fluorescence intensity; purified MbtI enzyme, fluorescence intensity read-out; AID 493033, 2011; 100,000 compounds, 0.89% hits; P9WFX0; inhibition, %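 (about 17 µg/mL by stock and volumes)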;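 active means above 50% in both replicates, above 80% if mildly self-fluorescent; inactive means the rest, strongly fluorescent compounds included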;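 further: 0% = mean of negative and 100% = mean of positive controls; one replicate is shown; some compounds called inactive have numbers as strong as hits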
Polio RdRp inh – poliovirus RdRp elongation inhibitors, primary screen, biochemical, fluorescence polarization, total intensity; Genome polyprotein (Poliovirus type 1 (strain Mahoney)), P03300; poliovirus polymerase elongation; active compounds read low; % elongation, % (compound at 16.7 µg/mL); 150,000 compounds, 0.66% hits; AID 588519, 2011; in the data active means % elongation below about 90%; further: some results filed as inactive read as strong as hits
Target sequence (P03300 1749-2209 limits assumed): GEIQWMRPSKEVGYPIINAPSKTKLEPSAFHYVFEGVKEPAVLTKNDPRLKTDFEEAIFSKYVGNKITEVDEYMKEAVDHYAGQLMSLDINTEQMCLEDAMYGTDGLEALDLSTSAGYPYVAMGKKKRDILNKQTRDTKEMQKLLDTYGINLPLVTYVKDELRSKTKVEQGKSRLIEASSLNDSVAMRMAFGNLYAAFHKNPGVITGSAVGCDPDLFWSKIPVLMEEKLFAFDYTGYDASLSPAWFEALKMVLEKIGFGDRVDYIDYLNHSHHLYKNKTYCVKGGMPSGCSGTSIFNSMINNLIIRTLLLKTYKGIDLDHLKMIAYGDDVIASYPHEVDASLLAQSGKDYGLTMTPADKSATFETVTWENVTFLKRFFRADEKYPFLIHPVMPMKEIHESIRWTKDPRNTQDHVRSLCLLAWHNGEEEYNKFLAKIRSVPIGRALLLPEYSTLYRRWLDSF
MenB inh – M. tuberculosis MenB inhibitors, primary screen, biochemical, absorbance; inhibition, %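 (about 12 µg/mL by stock and volumes)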; MenB enzyme assay, absorbance read-out; some hits fall short of the stated cut; 100,000 compounds, 0.43% hits; AID 540299, 2011; 1,4-dihydroxy-2-naphthoyl-CoA synthase (Mycobacterium tuberculosis (strain ATCC 25618 / …;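 active means mean of two replicates above 30%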;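 further: 0% = no compound and 100% = wells with inactive enzyme; the first replicate is given; strong numbers were not always called active; inactives centre near -10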
Target sequence (P9WNP5 whole entry, looked up): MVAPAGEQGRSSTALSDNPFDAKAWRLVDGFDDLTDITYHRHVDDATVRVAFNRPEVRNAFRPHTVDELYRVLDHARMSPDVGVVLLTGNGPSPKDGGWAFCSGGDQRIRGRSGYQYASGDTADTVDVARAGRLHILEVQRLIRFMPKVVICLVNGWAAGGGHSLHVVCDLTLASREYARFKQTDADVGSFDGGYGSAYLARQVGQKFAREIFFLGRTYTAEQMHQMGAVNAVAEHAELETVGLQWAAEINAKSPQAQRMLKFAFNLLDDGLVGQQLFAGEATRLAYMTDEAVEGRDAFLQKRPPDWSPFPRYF
Polio RdRp inh intensity – also measured in Polio RdRp inh; calls as there; % elongation; measured here: total intensity read-out; formula for this scale not given here;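 total fluorescence in place of polarization; lower means less elongation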
* hit, by the source's call; . = not tested or not shown; & = joins results of further samples.

SMILES	Mtb MbtI inh	Polio RdRp inh	Polio RdRp inh intensity	MenB inh
CC1(C)NC(=O)N(CC(O)CN(Cc2ccccc2)Cc2ccccc2)C1=O (configuration not stated)	-4	102	101	1
CC(N)c1nc(-c2cccnc2)no1 (configuration not stated)	-1	103	105	4
Cc1ccc(NC(=O)c2[nH]nc3c2COc2ccccc2-3)c(C)c1	7	101	99	-26
C=CCNC(=O)c1csc2c1CCCC2	-8	103	104	-16
CC(C)Sc1ncnc2c1cnn2-c1ccccc1	14	100	99	17
COc1ccc(Br)cc1CN(C)CC(O)COCc1ccc2c(c1)OCO2 (configuration not stated)	-18	100	100	0
O=C(O)[C@@H]1C[C@@H]2CCCC[C@@H]2N1	0	103	96	17
c1ccc(CN2CCc3nc(N4CCCC4)ncc3C2)cc1	-83	103	102	2
c1ccc(-n2cccc2CNC2CCCCC2)cc1	.	102	99	-19
CC(C)(C)c1ccc(Oc2ncnc3c2oc2ccccc23)cc1	-1	108	100	10
O=C(O)CCN1C(=O)c2ccc(F)cc2C1=O	-4	100	102	-10
COc1ccc(/C=C(\C#N)C(N)=O)cc1OC	-5	102	101	-26
CCCCN(C(=O)c1cccs1)c1nnc(-c2cc(OC)cc(OC)c2)s1	30	104	103	-4
O=c1[nH]c2cccnc2n1-c1ccccc1	-12	99	103	-19
COc1ccccc1C1CCN(S(=O)(=O)c2ccc(-c3csc(C)n3)s2)CC1	-7	105	115	-8
O=C(Cn1c(=O)n(-c2cccc(C(F)(F)F)c2)c(=O)c2sccc21)N1CCCc2ccccc21	-4	102	95	-31
S=c1[nH]nc(SCc2cccs2)s1	102*	98	104	3
CCOc1ccc(N=c2scc(-c3ccc(S(=O)(=O)N(CC)CC)cc3)n2CCCO)cc1	9	103	100	-17
CCN1CCCC1CNC(=O)c1c(O)c2c([nH]c1=O)CCCC2 (configuration not stated)	90	102	100	4
CC1OC(O[C@H]2/C=C/C=C/C=C/C=C/C=C/C=C/C=C/[C@H](C)[C@@H](O)[C@@H](C)[C@H](C)OC(=O)CC(O)CC(O)CCC(O)C(O)CC(O)CC3(O)C[C@H](O)C(C(=O)O)C(C2)O3)C(O)[C@H](N)C1O (some centres not stated)	-14	101	102	7
CC1=C(C(=O)O)SCCO1	-3	100	100	22
CCSc1ccc(CCN)s1	-1	101	107	-54
Cc1noc(C)c1CC(=O)Nc1cccc(-n2cnnn2)c1	-9	105	112	-19
CCCn1c(N)c(N(CCOC)C(C)=O)c(=O)n(CC(=O)Nc2cc(Cl)cc(Cl)c2)c1=O	-2	107	116	-5
CCn1c(=O)n(CC)c2cc(S(=O)(=O)N3CCc4ccccc43)ccc21	.	101	96	-3
Cc1oc(C(=O)O)cc1COc1ccc2c(C)c(Cc3ccccc3)c(=O)oc2c1C	75	103	101	5
COc1cccc(C(=O)NC2CC(C)(C)NC(C)(C)C2)c1	-5	100	104	-13
O=C(O)CSC12CC3CC(CC(C3)C1)C2	2	102	104	-14
O=C(CN1Cc2ccccc2C1=O)Nc1cnc2ccccc2c1	2	101	103	0
Cc1cc(SCC(=O)OCc2c(C)noc2C)c(C)cc1Br	-6	96	86	-22
Cc1nn2c(=S)[nH]nc2[nH]c1=O	-7	97	99	-6
COc1ccc(C(=O)NC(C)C(c2cccs2)N2CCN(c3ccccc3F)CC2)cc1OC (configuration not stated)	-7	103	100	-26
CCCCOc1ccc(C(=O)Nc2cc(-c3ccccc3)no2)cc1	5	103	98	-27
O=C(OCC(=O)N1CCCCCC1)c1c(Cl)cccc1Cl	2	102	105	.
O=C(c1ccccc1)c1ccc2nc(NCC3CCCO3)c3nncn3c2c1 (configuration not stated)	-1	101	102	-8
O=C(O)c1ccccc1OCC1CCCO1 (configuration not stated)	-10	104	95	-44
Cc1cc(NC(=O)CSc2cn(Cc3ccc(F)cc3)c3ccccc23)no1	12	104	97	-60
COc1ccccc1NC(=O)COc1nsnc1N1CCOCC1	.	102	94	2
Cc1ccc(S(=O)(=O)N2CCN(CCC(=O)O)CC2)cc1	-8	101	101	-16
COC(=O)C(NC(=O)c1ccc(Cl)cc1)C(F)(F)F (configuration not stated)	174	100	98	-2
CC[n+]1cccc(-c2nc3ccccc3o2)c1	106	106	109	-8
O=c1c(-c2cnn(-c3ccccc3)c2)coc2c3c(ccc12)OCO3	-13	102	107	-5
Cc1c(N(C)C)c(=O)n(-c2ccccc2)n1C	-3	101&100	103&104	7&6
CC1CCN(S(=O)(=O)c2c[nH]c(=O)[nH]c2=O)CC1	10	102	100	-20
CSc1nc2ccc(NC(=O)C(C)(C)C)cc2s1	-8	111	111	-23
CC1Cc2cc(S(=O)(=O)NCC3CCC(C(=O)Nc4ccccc4)CC3)ccc2N1C(=O)C1CC1 (configuration not stated)	-19	104	106	9
O=C(COc1ccc(Cl)cc1)N1CCNCC1	.	105	109	6
CC(Oc1ccc(Cl)cc1Cl)C(=O)NCCC1=CCCCC1 (configuration not stated)	.	101	108	2
COc1ccc(NC(=S)NC(C)(C)C)cc1OC	0	103	110	-23
NNC(=O)c1ccc(CN2CCCCC2)o1	-6	102	105	0
CC1CCCC(NCC(=O)Nc2ccc(C(N)=O)cc2)C1C (configuration not stated)	-12	105	106	-23
COC(=O)c1cc(C)sc1NC(=O)C1CC(=O)NN1C (configuration not stated)	23	102	102	-78
Cc1ccc(S(=O)(=O)Nc2nc3ccccc3nc2Nc2ccc(S(=O)(=O)Nc3onc(C)c3C)cc2)cc1	-86	105	105	-29
Nc1ccc2oc(=O)c(-c3ccccc3)cc2c1	6	103	106	-23
O=C1CCCN1C(=O)c1cc(Cl)cc(Cl)c1	4	102	101	-1
CCN(C(=O)CSc1nc2ccccc2c2nc3ccccc3n12)c1cccc(C)c1	-3	101	101	6
CCCN1CCN(CCCNC(=O)c2ccc3c(c2)NC(=O)c2ccccc2S3)CC1	-1	104	102	-13
CCCNC(=S)Nc1ccccc1Br	5	106	105	-19
Fc1ccc(C2CN3C(=N2)C=Cc2ccccc23)cc1 (configuration not stated)	-8	111	118	-10
CN(CCC#N)C(=O)Cc1ccc(F)cc1	-7	102	96	-6

Carrying on.
SMILES	Mtb MbtI inh	Polio RdRp inh	Polio RdRp inh intensity	MenB inh
Cc1cc2ccccn2c1CCC#N	-103	102	106	.
Cc1nc2ccccc2nc1CSc1nnc(Cc2ccccc2)n1-c1ccccc1	.	110	110	-21
O=C1C=CC(=O)N1c1ccc(S(=O)(=O)Nc2ccc(C(F)(F)F)cc2)cc1	98*	105	110	-1
COCCCN1C(=Nc2cccnc2)SCC1(O)c1ccccc1 (configuration not stated)	-8	103	106	-22
CCNC(=O)CCn1nc(-c2ccccc2)c2ccccc2c1=O	21	103	103	24
COc1ccc(/C=C/C(=O)Nc2ccc(-n3nncc3-c3ccc(OC)c(OC)c3)cc2)cc1OC	80	101	102	-21
Cc1ccc2cc(CN3CCN(C)CC3)c(Cl)nc2c1C	-4	103	107	8
COc1ccc(CNC(=O)C(CC(=O)N2CCOCC2)n2ccnc2)cc1 (configuration not stated)	-5	102	98	15
O=C(O)Cn1ncc2c3ccccc3n(Cc3cccc(Cl)c3)c2c1=O	106	112	126	-5
Cc1ccc(CN2CCN(N=Cc3ccccc3OCC(=O)O)CC2)c(C)c1	-3	101	103	-11
N#CSCCCOc1ccccc1Br	6	98	103	8
O=C(CCc1c[nH]c2ccccc12)Nc1cccnc1	-9	99	105	-1
Cc1ccc2c(c1)N(CC(=O)NC1CCC(C)CC1)C(=O)c1cccnc1O2 (configuration not stated)	-20	99	104	-2
O=C1CCC(C(=O)N2CCc3ccccc32)=NN1	-8	107	110	4
CCONC(=O)Nc1ccccc1	-7	105	95	-26
O=C(NC1CCCCC1)NC1CCCc2ccccc21 (configuration not stated)	-22	104	103	-11
Cc1cc(C(F)(F)F)nn1CC(=O)N1CCCCC1	5	97	100	-15
Cc1cc(C)c2c3c(sc2n1)C(=O)N(c1ccccc1C)CC(=O)N3	1	96	113	7
CC1(C)CC(=O)C2=C(C1)Nc1ccccc1N(C(=S)NCc1ccco1)C2c1cccnc1 (configuration not stated)	14	99	99	-13
CC(C)c1ccc(CN(C(=O)c2nc(S(C)(=O)=O)ncc2Cl)C2CCS(=O)(=O)C2)cc1 (configuration not stated)	78	104	106	-20
O=C(CSc1nc2ccccc2[nH]c1=O)Nc1ccccc1	4	103	100	2
COc1ccc(N(C=O)/C=C2\Sc3ccccc3C2=O)cc1	-4	75	176	-68
CCOC(=O)NC(=O)c1cn(CCc2ccncc2)c(=O)[nH]c1=O	-11	101	97	-2
Cc1ccc(C(=O)OCC(=O)NCc2ccccc2Cl)s1	-10	103	102	.
CC(=O)NC(CC(=O)N1CCN(S(=O)(=O)c2ccc(C)cc2)CC1)c1ccccc1 (configuration not stated)	10	96	100	-12
CC(C)[C@H](NC(=O)c1ccccc1)C(=O)Nc1ccc2c(c1)OCO2	-5	104	102	-9
O=C(C1CCC1)N1CCN(c2ccccc2)CC1	-4	105	103	-84
Cc1cc2ncn(S(=O)(=O)c3ccc(S(=O)(=O)N(C)C)cc3)c2cc1C	-5	102	107	-41
O=c1[nH]c2ccccc2c(-c2ccccc2)c1Sc1nc2ccccc2o1	-9	108	101	-41
CCOc1ccc(CNC(=O)COc2cc(=O)n(CC)c3ccccc23)cc1	0	101	103	-12
Clc1ccccc1CSc1nncn1NCc1ccccc1	-2	97	105	-2
COc1ccc(CCN2C(=O)CSC2=NC2CC2)cc1OC	-16	111	115	-16
CC(Oc1ccc(Cl)cc1Cl)C(=O)N1CCC(C(N)=O)CC1 (configuration not stated)	-2	101	100	.
Cc1ccc(N2C(=O)Nc3ccc(Br)cc3C2(O)C(=O)N2CCN(c3ccccn3)CC2)cc1C (configuration not stated)	16	99	102	-6
Cc1cc(-c2ccc(C(C)C)cc2)n(-c2ccccn2)n1	-5	100	104	7
Cc1cccc(NC(=O)CSc2nsc(SCC(=O)Nc3cccc(C)c3)c2C#N)c1	.	101	101	10
O=C(NCCCn1ccnc1)c1cc2nc(-c3ccccc3)cc(-c3ccccc3)n2n1	10	101	106	-30
Cc1ccc(S(=O)(=O)N2CCC[C@H]2C(=O)OCN2C(=O)c3ccccc3C2=O)cc1	1	101	104	-31
CN1CCc2c(sc3[nH]c(=O)c4c(=S)nc(-c5ccco5)[nH]c4c23)C1	-21	98	104	3
COC(CNC(=O)c1ccc(CS(=O)(=O)c2ccccc2)o1)OC	-3	99	102	-5
O=C(c1ccc(-c2cccs2)s1)N1CCOCC1	-66	98	95	-2
COc1ccc(N=C2C(=O)Nc3ccc(Br)cc32)cc1	0	98	101	-3
C#CCOc1ccc(Cl)c2cccnc12	90	115	112	-30
Cc1ccc2c(CN3C(=O)CCC3=O)cc(=O)oc2c1	0	.	.	4
Cc1ccc(-n2c(O)c(/C=N/c3ccnn3Cc3ccco3)c3ccccc3c2=O)cc1	-11	107	110	-4
O=C1c2ccccc2C(O)(Cc2ccccc2)N1Cc1ccccc1 (configuration not stated)	-13	100	103	8
O=C1CC(c2ccc(Cl)cc2)N=C(NC(=O)c2ccc3c(c2)OCO3)N1 (configuration not stated)	3	102	103	10
CC(C)NC(=O)c1cc(-c2ccccc2)on1	-4	101	108	-1

Complete entries as entered above.
COc1ccc(N=C2C(=O)Nc3ccc(Br)cc32)cc1 is entered as Mtb MbtI inh: 0; Polio RdRp inh: 98; Polio RdRp inh intensity: 101; MenB inh: -3
CN1CCc2c(sc3[nH]c(=O)c4c(=S)nc(-c5ccco5)[nH]c4c23)C1 is entered as Mtb MbtI inh: -21; Polio RdRp inh: 98; Polio RdRp inh intensity: 104; MenB inh: 3

Back to the main list, starting 4 compounds before the break.
SMILES	Mtb MbtI inh	Polio RdRp inh	Polio RdRp inh intensity	MenB inh
Cc1ccc(-n2c(O)c(/C=N/c3ccnn3Cc3ccco3)c3ccccc3c2=O)cc1	-11	107	110	-4
O=C1c2ccccc2C(O)(Cc2ccccc2)N1Cc1ccccc1 (configuration not stated)	-13	100	103	8
O=C1CC(c2ccc(Cl)cc2)N=C(NC(=O)c2ccc3c(c2)OCO3)N1 (configuration not stated)	3	102	103	10
CC(C)NC(=O)c1cc(-c2ccccc2)on1	-4	101	108	-1
Clc1cccc(NCn2nnc3ccccc32)c1Cl	-11	102	107	.
CC1(C)NC(=O)N(CC(O)COc2ccc(N3C(=O)c4ccccc4C3=O)cc2)C1=O (configuration not stated)	10	101	104	26
Cc1nc(N2CCCCC2)c2c(C)c(C(=O)Nc3cccc(C(F)(F)F)c3)sc2n1	-5	101	108	-11
COc1ccc2c(Sc3ccc(Cl)cc3)c(C(=O)NCCCN3CCN(C)CC3)[nH]c2c1	17	101	99	-15
COc1ccccc1C(=O)Nc1ccc(N2CCN(S(C)(=O)=O)CC2)cc1	1	99	103	-13
NCC(=O)Nc1ccc(Br)cc1	-7	100	102	1
CC1CCCN(CCCNC(=O)CCn2nc(-c3ccccc3)ccc2=O)C1 (configuration not stated)	34	101	97	-2
COc1ccc2c(-c3ccc(Cl)cc3)c(C)oc2c1	.	98	108	-25
O=c1c2ccccc2nc(-c2ccoc2)n1-c1ccccc1	21	99	100	-27
O=C(COC(=O)COc1ccc(Cl)cc1)Nc1ccc(Br)cc1F	-7	101	104	.
O=C(O)CSc1nc2ccc(Cl)cc2[nH]1	41	100	101	6

Screening data as filed in PubChem.
